Source: PubChem
CapD inh: inhibitors of Bacillus anthracis CapD enzyme; AID 492967; purified CapD enzyme, fluorescence intensity read-out; active compounds read low; some hits fall short of the stated cut; z-score (no concentration beside the values); actives 0.23% (n = 140,000);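 active = z-score under -4 in either of two replicates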;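 note: stock transfer was 100 nL into about 40 µL; score is relative to mean and spread of the plate; one replicate is shown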
AID504770: E. coli YBA685 growth inhibition, screen for V. cholerae RctB inhibitors. E. coli YBA685 rctB-dependent plasmid, OD600 growth, 3 h; active compounds read low. actives 0.27% (n = 130,000). z-score (no concentration beside the values). AID 504770;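 active = z-score under -2 on both plates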;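 note: wells of about 30 µL received 100 nL stock; score is relative to mean and SD of the test wells; the first replicate is given; strong numbers were not always called active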
Active calls of the source: *; . = not tested or not shown; & = joins results of further samples.

SMILES	CapD inh	AID504770
Nc1nc2c3cccc4cccc(c(=O)n2n1)c43	.	-0.05
O=C(NCc1nnc(SCC(=O)N2CCc3ccccc32)o1)c1ccccc1	.	0.8
O=c1c[n+]([O-])c2ccccc2n1OCc1c(F)cccc1F	0.32	-0.45
Cc1ccc2oc(=O)c3cc(C(=O)N4CCCCC4)sc3c2c1	28	-0.5
O=C(Nc1ccc(C(F)(F)F)cc1)c1cc(S(=O)(=O)N2CCN(c3ccccc3)CC2)ccc1F	-0.28	.
O=C(O)/C=C\C(=O)NCc1cccs1	0.71	-0.8
O=c1cc(CN2CCCCC2)c2cc(O)ccc2o1	.	-1.4
CCC#CCOC(=O)NC(Cc1c[nH]c2ccccc12)C(=O)OCc1ccccc1 (stereo unspecified)	-0.87	.
Cc1cc(C(=O)NCCCn2ccnc2)cs1	-0.22	-0.7
C=CCSc1nnc(COc2ccccc2)o1	-0.055	.
COC(=O)Cn1c(C(=O)OC)ccc1-c1ccco1	-0.53	-0.25
COC(=O)C1=C(N)OC2=C(CCCC2=O)C1c1cccnc1 (stereo unspecified)	0.53	0.8
Cc1ccc2c(c1)C1CN(C)CCC1N2C(=S)NC1CCCCC1 (stereo unspecified)	-0.52	.
O=P(c1ccccc1)(c1ccccc1)C(O)c1ccncc1 (stereo unspecified)	.	1.2
O=C(Nc1ccccc1C(F)(F)F)N1CCCCCC1	-0.66	-0.85
Cc1[nH]n(-c2ccccc2)c(=O)c1C(c1ccc(C(F)(F)F)cc1)c1c(C)[nH]n(-c2ccccc2)c1=O	-0.37	.
CCOC(=O)c1cccc(NC(=O)C2CCCCC2)c1	1.2	-0.4
COc1ccc(-n2nnc(C(N)=O)c2N)cc1	.	1.2
Cc1onc(-c2ccccc2)c1C(=O)NCCN1CCNC1=O	0.4	2.6
Cc1cc(Nc2ccc(N3CCCC3)cc2)n2c(nc3ccccc32)c1C#N	0.035	-0.5
Cc1oc(-c2ccccc2)nc1C(=O)N(C)Cc1cccc(Cl)c1Cl	.	-0.2
Cc1ncc(CSc2nc(C(C)(C)C)cs2)c(CO)c1O	0.55	0.1
Cc1oc2ncnc(N3CCC(C(N)=O)CC3)c2c1C(=O)O	-0.24	0.75
COCc1nc2ccccc2c2c1C(=O)N(CC1CCCO1)C2=O (stereo unspecified)	-0.51	.
CCCCC(=O)N1c2ccc(OC)cc2C2=C(SC(C(=O)OCC)=C(C(=O)OCC)C23SC(C(=O)OCC)=C(C(=O)OCC)S3)C1(C)C	-0.15	.
COc1ccc(CN2CCN(Cc3c[nH]c4ccccc34)CC2)c(OC)c1OC	-0.56	0.9
CCOc1ccc2c(c1)=C(c1sc(N)nc1O)C(=O)N=2	-0.56	2.5
Cn1ncc2c(Sc3ccc(Cl)cc3)ncnc21	-0.48	1.6
O=C(CSc1ncnc2c1nnn2Cc1ccccc1)OCc1ccccc1	.	-0.55
O=C(CN1C(=O)COc2ccccc21)NCc1ccco1	-1	1.4
Cc1ccsc1C=Nc1ccc(Cl)cn1	2.5	-0.3
O=C(CCCc1nc2ccccc2c(=O)[nH]1)Nc1ccnn1C1CCCC1	.	1.4
FC(F)(F)c1ccc(OCc2ccccc2)cc1	-0.21	.
CC1=NNC(=O)C1Cc1ccccc1 (stereo unspecified)	-0.42	-0.5
CC(NC(=O)Nc1ccccc1)c1ccccc1 (stereo unspecified)	0.11	0.15
Cc1nc(NC2CCN(Cc3ccccc3)CC2)c2c(C)c(C)sc2n1	0.74	.
COc1ccc(C2=NOC(C(=O)N3C(C)CCCC3C)C2)cc1 (stereo unspecified)	0.025	0
COc1cc(C=O)ccc1Oc1nc(N2CCCCC2)nc(N2CCCCC2)n1	-0.66	.
CN(CC(=O)NC1(C#N)CCCC1)Cc1cccc(F)c1	.	0.15
CS(=O)(=O)N1CCN(c2cc(C(F)(F)F)nc3ccccc23)CC1	0.005	1.2
Cc1ccc2cc(/C=C(\C#N)C(N)=O)c(N(C)C)nc2c1	.	-0.25
CCOC(=O)N1CCN(c2ncnc3c2cnn3-c2ccc(OC)cc2)CC1	4.3	.
CN(O)/C=C/C(=O)c1ccc(Br)cc1	-1.4	-0.4
COc1ccc(N2CCN(CCCNC(=O)Nc3ccccc3)CC2)cc1	0.02	-0.4
CCN(CC)S(=O)(=O)c1ccc2oc(SCc3cn4c(C)cccc4n3)nc2c1	.	-0.6
N#Cc1ccc(OCC(F)(F)F)nc1	0.93	-0.75
O=C(CNC(=O)C1CCCCC1)Nc1ccc(Cl)cc1	0.6	0.4
Cc1nc(C)c(C#N)c(-c2ccc(Cl)cc2)c1C#N	-0.39	0.5
O=C(CSc1nnc(SCC(=O)Nc2cccc([N+](=O)[O-])c2)s1)Nc1cccc([N+](=O)[O-])c1	-0.49	.
O=C(NCCC(=O)N1CCOCC1)c1ccc(Cl)cc1	.	0.05
CC1(NO)CCCC/C1=N/O (stereo unspecified)	0.14	.
COc1ccc(-n2ccn3c(CCC(=O)O)nnc3c2=O)cc1	0.18	-0.8
CCc1nn(C(C)C(=O)NCCN2CCN(c3cccc(C)c3C)CC2)c(=O)c2cc3occc3n12 (stereo unspecified)	0.13	2.2
OC(c1nc2ccc(F)cc2[nH]1)C(O)c1nc2ccc(F)cc2[nH]1 (stereo unspecified)	-1.4	1.2
CSCCC1NC(=S)N(Cc2ccccc2)C1=O (stereo unspecified)	-0.055	0.1
O=C(Nc1ccncc1)C1COc2ccccc2O1 (stereo unspecified)	0.37	-1.1
COc1ccc(N2C(=O)/C(=C\c3cc(Br)ccc3O)C(=O)NC2=S)cc1	-0.55	.
COc1ccc(OC)c(NC(=O)c2ccc(N3C(=O)C4CC=C(C)CC4C3=O)cc2)c1 (stereo unspecified)	-0.3	.
CN1CCC(N(C)C(=O)c2cc3ccccc3o2)CC1	0.97	-0.3
Cc1ccc(N2C(N)=C(C#N)C(c3ccccc3)C3=C2CC(C)(C)CC3=O)cc1 (stereo unspecified)	-0.025	-0.35
(list continues)
SMILES	CapD inh	AID504770
O/N=C(\Sc1ccc(Cl)cc1)c1ncc(C(F)(F)F)cc1Cl	-0.7	.
CC12CCOC1N(Cc1ccccc1)c1ccccc12 (stereo unspecified)	-0.2	-0.6
COc1ccc(-c2cc(C(F)(F)F)nc(S(=O)(=O)CCC(=O)NCc3cccnc3)n2)cc1	.	-0.2
COc1ccccc1CNc1ccc(C(=O)N2CCCC2)cc1S(=O)(=O)Nc1cccc(C(F)(F)F)c1	-1.1	.
CN1CCC(NC(=O)c2cccc(C(F)(F)F)c2)CC1	-0.15	-1
CCOC(=O)C1=C(C(=O)OCC)SC(=C2C(=S)C(C)(C)N(C(=O)COc3ccc4ccccc4c3)c3c(C)cccc32)S1	0.38	.
O=C(Cn1ncn2c(cc3ccccc32)c1=O)NC1CC1	2.2	-1.1
CN1C(=O)C[C@H](C(=O)O)[C@H]1c1cccnc1	0.51	-0.3
CC(C)(C)c1csc(Cc2ccccc2Cl)n1	-0.11	-1.2
COc1ccc(/C=C/C(=O)Nc2ccc(C)c(C)c2)cc1OC	-1.9	0.05
CN(C(=O)CSc1ncn[nH]1)c1ccccc1	0.28	0.5
CSc1ccccc1NC(=O)COC(=O)c1cccc2ccccc12	0.29	-0.25
O=C(O)CC(CC(=O)NCc1ccco1)c1ccc(C(F)(F)F)cc1 (stereo unspecified)	0.35	.
CN(C)S(=O)(=O)c1cccc(COC(=O)Cn2cnc3ccccc3c2=O)c1	.	2.3
Cc1ccc(-c2cc(-c3ccccc3)c(C#N)c(S(=O)Cc3ccccc3)n2)cc1 (stereo unspecified)	1.7	-0.3
CCOC(=O)c1c(NC(=O)Cn2cnc([N+](=O)[O-])n2)sc2c1CCC2	-0.5	.
COc1ccc(S(=O)(=O)N2CCN(C(C)c3ccccc3)CC2)cc1OC (stereo unspecified)	-0.21	.
O=C(O)CCCC(=O)Nc1cccc(NC(=O)c2ccco2)c1	-0.62	0
C=CCn1nnnc1SCC(=O)c1ccccc1	-0.065	0.7
Cc1c(Br)c([N+](=O)[O-])nn1CC(=O)Nc1ccc(Cl)cc1C(=O)c1ccccc1	-0.22	.

6 compounds picked at random from those above, as already listed:
SMILES	CapD inh	AID504770
CC1=NNC(=O)C1Cc1ccccc1 (stereo unspecified)	-0.42	-0.5
Cc1cc(C(=O)NCCCn2ccnc2)cs1	-0.22	-0.7
Cn1ncc2c(Sc3ccc(Cl)cc3)ncnc21	-0.48	1.6
Cc1ccsc1C=Nc1ccc(Cl)cn1	2.5	-0.3
COc1ccc(S(=O)(=O)N2CCN(C(C)c3ccccc3)CC2)cc1OC (stereo unspecified)	-0.21	.
CN1C(=O)C[C@H](C(=O)O)[C@H]1c1cccnc1	0.51	-0.3

(cont.)
SMILES	CapD inh	AID504770
CC(=O)Nc1ccc(OC(=O)Cn2c(C(F)(F)F)nc3ccccc32)cc1	-0.48	.
COc1ccc(-c2cc(C(F)(F)F)n3nc(C(=O)Nc4ccc(C(C)=O)cc4)cc3n2)cc1OC	-0.5	.
Cc1cc(C)c(Cn2c(SCc3cccc(F)c3)nc3ccncc32)c(C)c1	0.28	0.55
Clc1ccc(-n2nnnc2-c2ccno2)cc1	0.39	-0.95
Cc1oc2c(cc(NS(=O)(=O)c3ccc(Cl)cc3)c3ccccc32)c1C(=O)O	-0.55	.
CN(C(=O)CSc1ncnc2ccccc12)c1ccccc1	0.68	-0.1
C=CC(=O)n1nccc1-c1sc(COc2cccc(Cl)c2)nc1C	14	0.35
O=C(NC1CSCC1=O)c1ccccc1 (stereo unspecified)	.	-0.15
COc1ccc(OCC(=O)N2CCOCC2)cc1	0.015	-0.35
CCN(CCO)C(=O)Cc1cc(=O)[nH]c(=O)[nH]1	.	-0.8
O=C(Nc1nccs1)C1CCC(CNS(=O)(=O)c2cccc3nsnc23)CC1 (stereo unspecified)	0.72	1.1
O=C(c1cc(=O)[nH]c2ccccc12)N1CCSC1=NCCc1ccccc1	.	0
CCCC1=NNC(=O)C1Cc1c(Cl)cccc1Cl (stereo unspecified)	0.58	-0.25
CC1(C)C2CCC1(CS(=O)(=O)N1CCCN(c3nc4ccc(Cl)cc4s3)CC1)C(=O)C2 (stereo unspecified)	-0.43	-0.95
Cc1c(CN2CCc3ccccc3C2)sc2ccccc12	0.98	-0.05
CCOC(=O)N1CCN(C(=O)CSc2nc3c([nH]c4ccccc43)c(=O)n2-c2ccc(OCC)cc2)CC1	.	-1.1
CCn1c(C(=O)O)c(CC(=O)NCCc2ccc(OC)c(OC)c2)c2ccccc21	-0.55	.
Cc1c(NC(=O)C(C)OC(=O)c2ccc3c(c2)OCO3)c(=O)n(-c2ccccc2)n1C (stereo unspecified)	.	-0.6
O=C(Cn1c2ccccc2c(=O)c2cc(Cl)ccc21)NCc1ccc(F)cc1	0.74	.
C/C=C/C(=O)NC(C)c1ccccc1 (stereo unspecified)	0.17	0.65

Part of the list above, reformatted:
O=C(Nc1nccs1)C1CCC(CNS(=O)(=O)c2cccc3nsnc23)CC1 (stereo unspecified)
  CapD inh: 0.72
  AID504770: 1.1

O=C(c1cc(=O)[nH]c2ccccc12)N1CCSC1=NCCc1ccccc1
  CapD inh: .
  AID504770: 0

CCCC1=NNC(=O)C1Cc1c(Cl)cccc1Cl (stereo unspecified)
  CapD inh: 0.58
  AID504770: -0.25

CC1(C)C2CCC1(CS(=O)(=O)N1CCCN(c3nc4ccc(Cl)cc4s3)CC1)C(=O)C2 (stereo unspecified)
  CapD inh: -0.43
  AID504770: -0.95

(more compounds)
SMILES	CapD inh	AID504770
Cc1cc(NC(=O)CS(=O)(=O)c2cn(Cc3ccccc3Cl)c3ccccc23)no1	.	0.9
CSCCC(Nc1ncnc2c1oc1ccccc12)C(=O)O (stereo unspecified)	0.11	.
CCOC(=O)COc1cccc(C(C)=O)c1	-0.49	.
CCOC(=O)c1cc(NC(=O)c2ccc3c(c2)OCO3)cc(C(=O)OCC)c1	0.96	1.1
COC(=O)C1OC2(CCCC2)OC1C(=O)OC (stereo unspecified)	-0.14	1.4
O=c1oc(/C=C/c2ccco2)nc2sc3c(c12)CCCC3	-0.48	.
O=C(O)C1CCCN1C(=O)/C=C/c1ccco1 (stereo unspecified)	.	-0.2
CC1Oc2ccccc2N(C(C)C(=O)O)C1=O (stereo unspecified)	0.11	-0.6
Cc1nc2cc(NC(=O)c3ccc(S(=O)(=O)N4CCCCC4)cc3)ccc2s1	-0.15	.
Cc1cc(O)c(C=Nc2cccc(C(F)(F)F)c2)c(=O)o1	-0.23	0.3
CCS(=O)(=O)Nc1ccc(C(=O)Nc2cc(C)ccc2OC)cc1	-0.82	-1.1
Nc1ncc(-c2ccccc2)nn1	-0.68	.
COc1cccc(NC2=NC(C)(C)CS2)c1	0.2	-0.45
O=C(Nc1ccccc1C(=O)OCc1c(F)cccc1Cl)c1ccco1	1.1	-0.6
Nc1ccc(-n2nncc2-c2ccccc2)cc1	-0.27	0.35
O=C(N1CCOCC1)N1CCC(c2ccc(F)cc2)CC1	.	-0.15
CCC(=O)Oc1ccc(/C=N/NC(=O)c2ccc([N+](=O)[O-])o2)cc1	-0.65	.
CC(C)C1C(C#N)=C(N)SC(N)=C1C#N	-0.32&-0.42	-1.3&1.3

Some of the entries so far, with two lines to a compound.
Second line of a record – CapD inh, AID504770
CCOC(=O)COc1cccc(C(C)=O)c1
    -0.49, .
CCOC(=O)c1cc(NC(=O)c2ccc3c(c2)OCO3)cc(C(=O)OCC)c1
    0.96, 1.1
